motility: Vibrio cholerae motility inhibitors, OD read-out (AID 588778). one-dose inhibition, %; IC50 in µg/mL for titrated hits. Vibrio cholerae motility, OD read-out; higher % means a stronger effect; test concentration not given here; primary cut-off and reference of the scale not given here; strong numbers were not always called active. 10,000 tested, under 10 active; in the data active = confirmed in a dose series
motility viability: further read-out of motility, marked with its call; inhibition, %; measured here: bacterial viability at 10 ug/mL;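 higher means fewer living bacteria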
Starred values were filed as active, the others as inactive; i = inactive. The list is partial; the hit share may differ from the screen's.

SMILES	motility	motility viability
C=C1C2(C(=O)Nc3cc(C)ccc3OC)CCC(C2)C1(C)C (centres undefined)	-3%	6
O=C(NC1CC1)c1ccc(Cl)c(F)c1F	-7%	3
O=C(O)c1ccccc1COc1ccccc1Cl	2%	-3
O=C(O)c1ccccc1-c1ccccc1C(=O)NCc1cccnc1	-31%	-17
CCn1ccc(CNC(=S)NCCOC)n1	3%	-1
Cc1cc(C(=O)CSc2nnc3ccccn23)c(C)n1Cc1ccccc1	10%	5
Cc1ccc(OCC(O)CN(C)S(=O)(=O)c2ccc(Br)cc2)c(C)c1 (centres undefined)	11%	5
O=C(NC(c1ccccc1)c1ccccc1)c1ccccc1C(=O)NC(c1ccccc1)c1ccccc1	-26%	-10
Nc1cc(=O)[nH]c(SCC(=O)Nc2ccc(Br)cn2)n1	4%	-1
O=C1Cc2ccc(C(F)(F)F)cc2N1	24%	-1
COc1ccc(NC(=O)C2CC(=O)NC3=C2C(=O)CC(c2ccc(OC)cc2)C3)cc1 (centres undefined)	-7%	-6
Cc1ccc(S(=O)(=O)CCC(=O)OCC(=O)c2ccccc2)cc1C	11%	4
COc1ccc(N2C(=O)CC(NCCNc3ccc([N+](=O)[O-])cn3)C2=O)cc1 (centres undefined)	-4%	-4
COc1ccc(OCC(=O)NNC(=S)NC(=O)C(C)(C)C)cc1	57%	18
CCn1c(COc2ccc(C)cc2)nnc1SCC(=O)N1c2ccccc2Sc2ccccc21	-9%	-3
CN1CCN(CCC(=O)Nc2ccc3c(c2)CCC3)CC1	4%	-10
COc1ccc(C(C)(C)C)cc1S(=O)(=O)Nc1ccc(F)cc1	-29%	-8
COc1ccc(OC)c(N(CC(=O)Nc2ccc(-c3nc4ccc(C)cc4s3)cc2)S(C)(=O)=O)c1	-12%	-9
Cc1ccc(SC2CC(=O)N(c3ccc(-c4nc5ccccc5o4)cc3)C2=O)cc1 (centres undefined)	-1%	-2
CCCCOc1ccccc1NC(=O)c1ccc(=O)[nH]c1	4%	1
O=C(CCN1CCN(c2ccccc2F)CC1)Nc1ccc(Br)cc1	1%	-7
CC(=O)OC(C(=O)N1CCN(c2ccccc2F)CC1)c1ccccc1 (centres undefined)	8%	-5
O=C(NN1CC(C(=O)OCc2ccc(Cl)cc2Cl)CC1=O)c1ccccc1 (centres undefined)	5%	-1
C=CCC(Nc1ccc(Cc2ccc(NC(CC=C)c3ccc(C)cc3)cc2)cc1)c1ccc(C)cc1 (centres undefined)	-14%	-6
O=S1(=O)C=C(Br)c2ccccc21	93%	23

Whole records as entered above. Screens in order: motility	motility viability
COc1ccc(N2C(=O)CC(NCCNc3ccc([N+](=O)[O-])cn3)C2=O)cc1 (centres undefined) in the list: -4%	-4
C=CCC(Nc1ccc(Cc2ccc(NC(CC=C)c3ccc(C)cc3)cc2)cc1)c1ccc(C)cc1 (centres undefined) in the list: -14%	-6

The listing continues.
SMILES	motility	motility viability
O=C1OCCC1Sc1nc2ccccc2n1Cc1ccccc1 (centres undefined)	-17%	-2
O=C(CC1SC(=O)NC1=O)Nc1ccccc1NC(=O)CC1SC(=O)NC1=O (centres undefined)	-4%	0
CCn1c2ccccc2c2cc(NC(=O)N3CCOCC3)ccc21	20%	6
Cc1ccc(CNC(=S)NCCN(C)C)cc1	18%	13
COc1cc(/C=C2/C(=O)N(c3ccccc3)N=C2C)cc(Br)c1OC(=O)c1cccs1	2%	-2
N#Cc1c(-c2ccco2)nc(N2CCCCC2)[nH]c1=O	5%	-1
CCCn1nnnc1NC(=O)COc1ccc(Br)cc1	16%	9
Cc1cc(NC(=O)c2ccc(C(=O)Nc3cc(C)c(O)c(C)c3)cc2)cc(C)c1O	13%	-1
O=C(Nc1nnc(C2CCCO2)s1)c1cc2ccccc2o1 (centres undefined)	12%	5
CCc1nnc(NC(=O)c2c(C)c(-c3ccc(Cl)cc3)nc3ccccc23)s1	-7%	-2
NC1=NC(=Nc2cc(Cl)cc(Cl)c2)c2ccccc21	20%	2
CCSc1ccccc1C(=O)Nc1nnc(Cc2ccc(OC)cc2)s1	14%	5
CC(C)Oc1ccc(N2CC(C(=O)NC3=NCCS3)CC2=O)cc1 (centres undefined)	4%	-3
COc1cc(C=O)cc(Br)c1OC(=O)C12CC3CC(CC(C3)C1)C2	6%	-3
Cc1csc(NS(=O)(=O)c2ccc(C)c([N+](=O)[O-])c2)n1	8%	-2
CN(C)CCOCc1ccccc1	-14%	-10
CCCC(=O)Nc1ccc(C(=O)Nn2cnnc2)cc1	6%	32
COc1ccc(OC)c(C(=O)CSC#N)c1	5%	-2
Cc1cc(NC(=O)COc2cc(C)c(Cl)c(C)c2)no1	4%	-8
O=C(N/N=C/c1ccc2c3c(cccc13)CC2)c1ccc(CN2CCOCC2)cc1	-12%	1
N#C/C(=C(/O)c1ccc(-c2ccccc2Cl)o1)c1nc2ccccc2s1	-10%	-4
O=[N+]([O-])c1cccc(-c2n[nH]c(=S)n2Cc2ccccc2)c1	8%	3
Cn1c(=O)n(C)c2cc3c(cc21)nc1c2cccc4cccc(c(=O)n31)c42	-7%	-1
O=C(c1cc2ccccc2o1)c1nc2c(n1O)CCCC2	37%	8
CCC(C(=O)O/N=C(\N)c1cccnc1)c1ccccc1 (centres undefined)	-9%	-5

(list continues)
SMILES	motility	motility viability
CCOC(=O)c1ccc(NC(=S)NNC(=O)CSCc2ccccc2F)cc1	31%	8
COC(=O)c1ccccc1NC(=O)Cn1c(C)ccc1C	3%	1
COC(=O)COc1ccccc1OCC(=O)OC	7%	7
O=C(c1ncc[nH]1)c1ccccc1C(=O)N1CCOCC1	-9%	-2
CNC(=S)NCCCN1CCN(c2ccc(F)c(Cl)c2)CC1	0%	-6
COc1ccc(CCCC(=O)O)c(C)c1	-14%	-15
CC(C)(C)c1cc(C(=O)NCc2ccco2)ccn1	2%	3
O=C(Nc1ccc(S(=O)(=O)Nc2ncccn2)cc1)C(Cc1ccccc1)N1C(=O)C2CCCCC2C1=O (centres undefined)	-6%	-8
C=C1C2(C(=O)NCCCn3ccnc3)CCC(C2)C1(C)C (centres undefined)	17%	29
Nc1cc(N)nc(SCCCCSc2nc(N)cc(N)n2)n1	11%	0
Cc1ccccc1C(=O)Oc1ccc(C=O)cc1Br	19%	3
Cc1ccc(S(=O)(=O)N2C(=O)CCC2C(=O)NCc2ccccc2Cl)cc1 (centres undefined)	5%	-4
O=C(NCc1ccco1)C1OCCc2ccccc21 (centres undefined)	-3%	-3
CC1CCN(C=C(S(=O)(=O)c2ccccc2)S(=O)(=O)c2ccccc2)CC1	-11%	-6
O=c1[nH]c2ccccc2c(=O)n1-c1ccccc1F	7%	7
O=C(NC(=S)Nc1nc2c(Cl)c(Cl)ccc2s1)c1ccco1	2%	-2
Cc1ccc(C(=O)CC(Nc2ccc3ccccc3c2)c2cccnc2)cc1 (centres undefined)	-3%	-2
O=C(Nc1ccc2nc(-c3ccco3)[nH]c2c1)c1cccs1	13%	5
Cc1cc(I)cc(C)c1NC(=O)C1CC(O)CN1C(=O)Oc1ccccc1 (centres undefined)	-17%	-7
O=C(CC1Nc2ccccc2NC1=O)c1cccs1 (centres undefined)	-15%	-4
Cc1ccc(SCc2cc(=O)[nH]c(N3CCCCC3)n2)cc1	5%	1
COc1ccc(NC(=S)Nc2ccc(S(=O)(=O)N3CCOCC3)cc2)cn1	-7%	0
NC(=O)CSc1ccc(Br)cc1	-5%	0
Cc1nnc(SCC(=O)Nc2sc3c(c2C#N)CCC(C(C)(C)C)C3)s1 (centres undefined)	-4%	-4
CCN(CC)c1ccc(-n2nc3cc(C)c(NC(=S)NC(=O)c4ccccc4F)cc3n2)cc1	-14%	-9

More structures:
SMILES	motility	motility viability
N#CC1=C(N)Oc2cc(O)ccc2C1c1cccnc1 (centres undefined)	-16%	-7
COc1ccc(NC(=S)Nc2c(C)nn(Cc3c(F)c(F)c(F)c(F)c3F)c2C)cc1OC	1%	0
Cc1occc1C(=O)n1cnc2ccccc21	-2%	-2
COc1ccc(S(=O)(=O)Nc2ccc(S(=O)(=O)NC(=O)c3ccccc3)cc2)cc1OC	1%	9
O=S(=O)(Nc1ncccn1)c1ccc(NC(=S)N2CCN(c3cccc(C(F)(F)F)c3)CC2)cc1	-10%	-7
O=C(NCCCO)NCC12CC3CC(CC(C3)C1)C2	19%	3
CCCCS(=O)(=O)Nc1ccc(C(=O)NCC2CCCO2)cc1 (centres undefined)	3%	-3
COc1cc(NC(=O)CCn2cnc3ccccc3c2=O)c(OC)cc1Cl	21%	9
COc1ccccc1CCNC1CC(=O)N(c2ccc(-c3nc4ccc(C)cc4s3)cc2)C1=O (centres undefined)	-11%	0
Cc1cc(C(=O)Nc2nnc(C(F)(F)F)s2)cs1	25%	6
O=C(c1ccc2c(c1)OCO2)N(c1ccccc1)C1C=CS(=O)(=O)C1 (centres undefined)	15%	12
CC(C)CC(=O)NC(c1ccc(Cl)cc1)c1c(O)ccc2ccccc12 (centres undefined)	22%	-9
COCc1c(Br)c(C)nc(OCC(=O)O)c1C#N	9%	2
COc1ccc(C2(CNC(=O)c3cccs3)CCOCC2)cc1	14%	24
COc1c(Cl)cc(Cl)cc1C(=O)Nc1ccccc1I	-12%	-9
Cc1ccccc1CSCCNC(=O)c1ccc(Cl)cc1Cl	18%	4
CN(C1CC(C)(C)NC(C)(C)C1)S(=O)(=O)CC12CCC(CC1=O)C2(C)C (centres undefined)	-1%	1
CCOC(=O)c1ccc(-n2c(-c3cccc(F)c3)nn(C3CC(=O)N(C)C3=O)c2=S)cc1 (centres undefined)	4%	8
CC(C)N1CCN(Cc2ccccc2C(F)(F)F)CC1	-4%	-6
C=CCn1c(SCC(=O)Nc2c(C)cc(I)cc2C)nnc1-c1ccco1	5%	-3
Cc1scc(C(=O)NCCCn2ccnc2)c1-c1ccccc1	-6%	1
Brc1ccc(C2=Nc3cccc4cccc(c34)N2)o1	-23%	-3
COC(=O)c1sc2cc(NC(=S)NC(C)c3ccc4c(c3)OCO4)ccc2c1Cl (centres undefined)	i	12
O=C(c1sc2ccccc2c1Cl)N1CCN(c2ncccn2)CC1	15%	-1
Cn1c(=S)c2c(c3c(N)ncnc31)CCCC2	1%	0

The list goes on.
SMILES	motility	motility viability
CC(C)(CO)NCc1c(F)cccc1Cl	13%	2
COc1ccc(N2CCN(C(=O)Cc3cccs3)CC2)cc1	-10%	2
O=C(Nc1ccc(Cl)cn1)c1ccc([N+](=O)[O-])cc1Cl	20%	7
COc1cccc(S(=O)(=O)NCc2ccc(C(=O)Nc3cccnc3)cc2)c1	4%	-11
Cc1c(C(=O)N2CCN(c3ncccn3)CC2)oc2ccccc12	16%	4
COc1cc(C2C3=C(CC(C)(C)CC3=O)Nc3[nH]c(=S)[nH]c(=O)c32)ccc1OC(C)C (centres undefined)	8%	-8
CCCCc1nc(SCC(=O)Nc2ccc(S(N)(=O)=O)cc2)n[nH]1	21%	8
CCS(=O)(=O)Nc1ccc(C2=NN(S(C)(=O)=O)C(c3cccc(F)c3)C2)cc1 (centres undefined)	15%	-7
N#C/C(=C\Nc1ccc(C(N)=O)cc1)c1nc(-c2ccccc2)cs1	-12%	0
COc1cc2c(cc1OC)C(NNC(=O)c1ccco1)=NC(C)(C)C2	-13%	-3
Cc1cccc(COc2ccc(/C=C/[N+](=O)[O-])cc2)c1	22%	5
CC(=O)c1cccc(NC2=NCC(C)(C)S2)c1	-4%	-4
CCc1cc2c(=O)c(-c3nc4ccccc4n3C)c(CC)oc2cc1OC(=O)C(C)(C)C	0%	-2
COC(=O)c1ccc(Cl)c(NC(=O)c2ccco2)c1	-2%	-10
COc1ccc2c(c1OC)C(=O)OC2CC(=O)c1ccc(N(C)C)cc1 (centres undefined)	2%	-2
Cc1cc(=O)[nH]c(SCC(=O)N2CCC(C(N)=O)CC2)n1	5%	-5
CC1(C)CC(=O)C2=C(C1)NCN(Cc1ccc3c(c1)OCO3)C2	-11%	-3
Cc1ccc(NC(=O)CC2COc3ccccc3O2)cc1Cl (centres undefined)	43%	10
O=C(OCc1ccc([N+](=O)[O-])cc1)c1ccc(-c2nnc(-c3ccccc3)o2)cc1	6%	2
COc1ccc(OCC#CCSC#N)cc1	100%	30
C=CCn1nnnc1SCC(=O)Nc1ccccc1C(=O)OC	2%	5
Cc1sc(NC(=O)CN2CCOCC2)c(C(=O)c2ccccc2)c1C	5%	-1
CC(C)(C)NS(=O)(=O)c1ccc(Br)cc1	10%	0
Cc1c(NC(=O)Cc2cccs2)cccc1C(=O)NN1C(=O)c2ccccc2C1=O	7%	6
COCCNC(=S)Nc1ccccc1SC	-3%	-8
Cc1ccc(OCCCCn2ccnc2C)c(C)c1	32%	6
O=C(CSCc1cccc(Cl)c1)NC1CC1	-5%	-1

A section from further up:
SMILES	motility	motility viability
COc1cc2c(cc1OC)C(NNC(=O)c1ccco1)=NC(C)(C)C2	-13%	-3
Cc1cccc(COc2ccc(/C=C/[N+](=O)[O-])cc2)c1	22%	5
CC(=O)c1cccc(NC2=NCC(C)(C)S2)c1	-4%	-4
CCc1cc2c(=O)c(-c3nc4ccccc4n3C)c(CC)oc2cc1OC(=O)C(C)(C)C	0%	-2
COC(=O)c1ccc(Cl)c(NC(=O)c2ccco2)c1	-2%	-10
COc1ccc2c(c1OC)C(=O)OC2CC(=O)c1ccc(N(C)C)cc1 (centres undefined)	2%	-2
Cc1cc(=O)[nH]c(SCC(=O)N2CCC(C(N)=O)CC2)n1	5%	-5
CC1(C)CC(=O)C2=C(C1)NCN(Cc1ccc3c(c1)OCO3)C2	-11%	-3
Cc1ccc(NC(=O)CC2COc3ccccc3O2)cc1Cl (centres undefined)	43%	10
O=C(OCc1ccc([N+](=O)[O-])cc1)c1ccc(-c2nnc(-c3ccccc3)o2)cc1	6%	2
COc1ccc(OCC#CCSC#N)cc1	100%	30
C=CCn1nnnc1SCC(=O)Nc1ccccc1C(=O)OC	2%	5
Cc1sc(NC(=O)CN2CCOCC2)c(C(=O)c2ccccc2)c1C	5%	-1
CC(C)(C)NS(=O)(=O)c1ccc(Br)cc1	10%	0
Cc1c(NC(=O)Cc2cccs2)cccc1C(=O)NN1C(=O)c2ccccc2C1=O	7%	6
COCCNC(=S)Nc1ccccc1SC	-3%	-8
Cc1ccc(OCCCCn2ccnc2C)c(C)c1	32%	6
O=C(CSCc1cccc(Cl)c1)NC1CC1	-5%	-1

Screening results: PubChem BioAssay, Southern Research Institute
